Screening results (PubChem BioAssay)
KCNQ2 block: KCNQ2 potassium channel inhibitors, primary screen, cell-based, CHO-K1, FluxOR thallium flux, B-score (AID 2156). hit rate 1.1% among 310,000. B-score at 10 µM. O88943. 20 min; stronger effect = lower value; only compounds with negative scores are shown here; some inactives read as strong as hits;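 active = fluorescence ratio B-score at most minus 3 library SDs, with starting brightness B-score within 2 library SDs, cut at about -5.5 in these data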
Target sequence (O88943 whole entry, looked up): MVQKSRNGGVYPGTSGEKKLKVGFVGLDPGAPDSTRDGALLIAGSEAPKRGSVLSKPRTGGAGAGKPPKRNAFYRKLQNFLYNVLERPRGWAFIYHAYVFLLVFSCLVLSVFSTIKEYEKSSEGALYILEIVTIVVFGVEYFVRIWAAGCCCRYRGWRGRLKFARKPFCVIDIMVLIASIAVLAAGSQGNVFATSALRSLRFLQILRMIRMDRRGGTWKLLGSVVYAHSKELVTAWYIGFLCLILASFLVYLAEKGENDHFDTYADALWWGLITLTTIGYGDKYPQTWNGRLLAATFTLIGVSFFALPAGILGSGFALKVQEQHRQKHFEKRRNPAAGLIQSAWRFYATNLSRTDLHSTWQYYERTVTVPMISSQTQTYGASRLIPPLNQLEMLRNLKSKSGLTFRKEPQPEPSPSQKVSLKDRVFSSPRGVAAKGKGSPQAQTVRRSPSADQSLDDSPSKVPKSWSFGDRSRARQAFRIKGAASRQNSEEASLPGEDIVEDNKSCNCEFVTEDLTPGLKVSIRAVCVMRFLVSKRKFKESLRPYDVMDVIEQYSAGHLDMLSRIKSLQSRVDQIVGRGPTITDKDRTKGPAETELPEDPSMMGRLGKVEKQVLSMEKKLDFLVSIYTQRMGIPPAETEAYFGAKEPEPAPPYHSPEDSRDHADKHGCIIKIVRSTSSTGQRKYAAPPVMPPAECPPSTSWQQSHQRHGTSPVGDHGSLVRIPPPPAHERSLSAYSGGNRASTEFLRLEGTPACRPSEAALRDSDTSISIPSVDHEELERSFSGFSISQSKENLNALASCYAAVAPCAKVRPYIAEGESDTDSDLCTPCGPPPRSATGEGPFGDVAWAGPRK
KCNQ2 block baseline: second read-out of KCNQ2 block, no call of its own (marks repeat the call); B-score; measured here: initial fluorescence intensity artifact check;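 brightness before thallium and not channel activity; 0 = typical well and far values either way flag optical interference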
* = called active by the depositor; i = inactive. Not all compounds are listed; rates above refer to the full screens.

Molecule | KCNQ2 block | KCNQ2 block baseline
CN(C)S(=O)(=O)c1cccc(N=C2SCCN2Cc2ccccc2)c1 | i | -1.5
O=C(c1ccc(S(=O)(=O)N2CCCCC2)cc1)N1CCCC(C(F)(F)F)C1 (stereo unspecified) | i | 0.04
Cn1c(=O)c2c(nc(CN3CCN(Cc4ccccc4)CC3)n2Cc2ccc(F)cc2)n(C)c1=O | i | -2.1
COc1cc(O)c(CC=C(C)C)c(O)c1C(=O)CCc1ccc(O)cc1 | i | -1.5
CC(C)CC(NC(=O)C(NC(=O)C1OC2OC(C)(C)OC2C2OC(C)(C)OC12)C(C)C)C(=O)O (stereo unspecified) | i | 1.5
Cc1ccccc1C(=O)Nc1sc(C)c(C)c1C(=O)c1ccccc1 | -9.6* | 0.9*
Cc1c(C(=O)C(=O)NCC2CCCO2)c2ccccc2n1C (stereo unspecified) | i | -0.92
COc1ccc(-n2c(C)cc(C=O)c2C)cc1Cl | i | 0.22
O=C(/C=C/c1ccc(Cl)cc1)N1CCN(c2ccccc2[N+](=O)[O-])CC1 | i | 0.01
O=C(Nc1ccon1)c1ccc(S(=O)(=O)N2CCCCCC2)cc1 | i | -0.29
Cc1noc(C)c1C(=O)OCC(=O)c1c(N)n(CC(C)C)c(=O)n(C)c1=O | i | 0.03
N#CC(C(=O)Nc1ccc(Cl)cc1)=C1Nc2ccccc2N1 | i | -0.06
Cc1ccc[n+](-c2nc3ccccc3nc2C(=C=[N-])C#N)c1 | i | 0.57
O=C(NCc1ccco1)/C(=C/c1ccccc1F)NC(=O)c1ccccc1 | i | 2
CC(C)(C)C(=O)Nc1cc(NC(=O)C(C)(C)C)cc(C(=O)NNC(=O)c2ccncc2)c1 | i | -1
COC(=O)c1ccc(C23CC4(C2)[C@H](CN(Cc2cccnc2)[C@@H]4c2ccccc2)C3c2ccc(Cl)nc2)cc1 (stereo partly specified) | i | -2.3
O=C(COC(=O)c1cnc(Cl)c(Cl)c1)NCc1cccs1 | i | -0.55
O=C(O)c1ccc(NS(=O)(=O)c2ccc3c(c2)OCCO3)cc1 | i | -0.59
Cc1cc(C)c(S(=O)(=O)NCc2cccs2)cc1C | i | 0.68
Oc1ccc(-c2nnc(SCC3CCCCC3)o2)cc1 | i | 2.1
O=S(=O)(NCC1CCCO1)c1ccc(Br)cc1 (stereo unspecified) | i | -1.1
Cc1csc(NC(=O)Nc2cccc(Cl)c2)n1 | i | -0.32
COc1ccc(NC(=O)C(=O)NCCN2CCN(C(=O)c3ccc(C(C)(C)C)cc3)CC2)cc1 | i | 0.46
COc1cccc(S(=O)(=O)NCc2ccc(C(=O)N3CCN(c4ccccc4)CC3)cc2)c1 | i | 1.5
O=C(Cn1c(=O)sc2ccccc21)OC(CCl)CCl | i | 8.7
C/C(=N\NC(=O)c1nnn(-c2nonc2N)c1-c1ccccc1)c1ccco1 | i | 2.9
CC1COC(C)(CC(=O)NN2C(=O)c3ccccc3C2=O)O1 (stereo unspecified) | i | 1.2
Cc1cccc(C)c1NC(=O)CN(C)C(=O)c1ccc(-c2cccc(C(F)(F)F)c2)o1 | i | -0.12
COc1ccccc1CN1C(=O)CN(C2CCCCCC2)C(=O)C1c1ccc(F)cc1 (stereo unspecified) | -6.1* | -0.38*
O=C1c2ccccc2-c2nccnc21 | i | 1

Random excerpt: 7 records from the list.
Molecule | KCNQ2 block | KCNQ2 block baseline
Cc1c(C(=O)C(=O)NCC2CCCO2)c2ccccc2n1C (stereo unspecified) | i | -0.92
N#CC(C(=O)Nc1ccc(Cl)cc1)=C1Nc2ccccc2N1 | i | -0.06
O=C(COC(=O)c1cnc(Cl)c(Cl)c1)NCc1cccs1 | i | -0.55
Cc1noc(C)c1C(=O)OCC(=O)c1c(N)n(CC(C)C)c(=O)n(C)c1=O | i | 0.03
C/C(=N\NC(=O)c1nnn(-c2nonc2N)c1-c1ccccc1)c1ccco1 | i | 2.9
COc1ccccc1CN1C(=O)CN(C2CCCCCC2)C(=O)C1c1ccc(F)cc1 (stereo unspecified) | -6.1* | -0.38*
COc1cc(O)c(CC=C(C)C)c(O)c1C(=O)CCc1ccc(O)cc1 | i | -1.5

(cont.)
Molecule | KCNQ2 block | KCNQ2 block baseline
CC(C)c1ccc(NC(=O)c2ccc(NS(C)(=O)=O)cc2)cc1 | i | -0.01
COc1ccc(CCNC(=S)Nc2ccc(OC)cc2)cc1 | i | -0.89
O=S(=O)(NCc1cccs1)c1ccc(Br)cc1 | i | 0.19
O=C(NCCSc1ccccc1)c1ccccc1F | i | 0.44
COc1ccccc1NC(=O)c1ccc(-c2nn(C)c(=O)c3ccccc23)cc1 | i | -1.7
CC1(C)CCN2CCC(C)(C)c3c(O)ccc1c32 | i | 1.8
COc1ccc(NC(=O)c2cc3ccc(O)cc3o/c2=N\O)cc1 | i | 0.05
O=C(O)c1nnn(-c2ccc([N+](=O)[O-])cc2)c1-c1ccccc1 | i | 0.78
CCCCNC(=O)C(=O)N/N=C/c1ccc(OCc2ccccc2)cc1 | i | -1.1
COc1ccc(C(=O)NCCCNC(=O)c2cccnc2)cc1OC | i | 0.06
CCN1C(=O)[C@@H]2[C@@H](c3ccc(-c4ccc(Cl)c(Cl)c4)cc3)N3CCCC[C@@]3(C(=O)OC)[C@@H]2C1=O | i | 0.53
Cc1ccccc1CCN1CCCC(CN(C)C(=O)c2ccc3ncccc3c2)C1 (stereo unspecified) | i | 1.6
COc1ccc(N(CC(=O)NCc2cccs2)S(=O)(=O)c2c(C)n[nH]c2C)cc1 | i | -0.51
CCC1CCC2(CC1)NNC(=S)NN2 | i | -1.4
CCN1C(=O)c2ccccc2Sc2ccc(C(=O)NCCCN3CCOCC3)cc21 | i | 5.1
CC(=O)Nc1ccc(S(=O)(=O)NC2(C(F)(F)F)C(=O)Nc3c2c(=O)[nH]c(=O)n3Cc2ccccc2)cc1 (stereo unspecified) | i | 0.83
CC(NS(=O)(=O)c1ccccc1)C(=O)Nc1ccc2c(c1)OCCO2 (stereo unspecified) | i | 1.7
O=C(NN=C(Cc1ccccc1)Cc1ccccc1)c1ccc(F)cc1 | -5.6* | 0.76*
C=CCOc1c(CNc2ccc(C(=O)O)cc2)cccc1OCC | i | 2.1
Clc1cccc(-c2nc(NCc3cccnc3)c3ccccc3n2)c1 | i | 0.1
CCc1ccc(OC(=O)Nc2ccccc2)cc1 | i | 1.1
CCN(Cc1ccccc1)S(=O)(=O)c1ccc2c(c1)NC(=O)CC(=O)N2 | i | -1.3
Cc1cc(C(=O)NCCc2ccc(Cl)cc2)c(C)o1 | i | -2
CCc1ccccc1N(CC(=O)N1CCCC1)S(C)(=O)=O | i | 0.14
COc1ccc(CC(=O)NCC2COc3ccccc3O2)cc1 (stereo unspecified) | i | 3.2
CCC1S/C(=N/N=C/c2ccco2)N(Cc2ccccc2)C1=O (stereo unspecified) | i | 0.1
CCOC(=O)CSC1=C(C#N)C(=O)NC(c2ccc(OC)c(OC)c2)S1 (stereo unspecified) | i | 0.5
Cc1cc(C)nc(SCc2nnc(SCC(=O)Nc3ccc(C)c(C)c3)o2)n1 | i | -1.6
COC(=O)c1sc2nc(CN3CCOCC3)nc(N3CCOCC3)c2c1C | i | 0.02
O=C(Nc1cccc(F)c1)/C(=C\c1ccco1)NC(=O)c1ccco1 | i | 2.3
CC(OC(=O)c1cccnc1)C(=O)Nc1ccc2c(c1)OCO2 (stereo unspecified) | i | 1.6
O=C(/C=C/c1ccccc1[N+](=O)[O-])Oc1ccccc1 | i | -0.95
Cc1cc(C(=O)OCC(=O)c2ccc3c(c2)NC(=O)CO3)c2ccccc2n1 | i | 1.3
CC(=O)C1(O)C(C)CC2C3CCC4CC(O)CCC4(C)C3=CCC21C (stereo unspecified) | i | 2.1
Cc1c(Br)c(C(F)(F)F)nn1CC(=O)N1CCCC1 | i | -0.01
O=C(O)C1C2C=CC(C2)C1C(=O)NC1CCN(Cc2ccccc2)CC1 (stereo unspecified) | i | 1.3
CCN(CC)c1nc(Oc2ccc(C(=O)NN)cc2)nc(Oc2ccc(C(=O)NN)cc2)n1 | i | -1
OC(COCC1COc2ccccc2O1)CN1CCN(c2ccc(F)cc2)CC1 (stereo unspecified) | i | 2.2
CCSc1nc2c(cnn2-c2ccc(C)c(C)c2)c(=O)[nH]1 | i | -1.4
CCN(CC)S(=O)(=O)c1cccc(C(=O)Nc2cc3oc4ccccc4c3cc2OC)c1 | i | -0.18
O=C(CCN1C(=O)C2CC=CCC2C1=O)NC1CCCCC1 (stereo unspecified) | i | 0.93
CNC(=S)Nc1cc(S(=O)(=O)Nc2cc(Cl)ccc2Cl)ccc1N1CCCC1 | i | -0.1
COc1ccccc1NS(=O)(=O)c1cc(NC(=O)c2sccc2C)ccc1N1CCCC1 | i | -0.58
COc1ccc(CN2CCN(C(=O)c3cccs3)CC2)cc1Br | i | -1.4
CC1C/C(=C/c2ccncc2)C(=O)/C(=C/c2ccncc2)C1 (stereo unspecified) | i | 0.83
C=C(C)CSc1nc2ccccc2[nH]1 | i | -0.4
COc1ccc(NC(=O)c2cn(-c3ccccc3)nc2-c2cc3ccccc3o2)cc1 | -6* | -0.38*
CCCCNc1c(-c2ccc(OC)c(Sc3ccc(OC)cc3)c2)nc2ccccn12 | i | -0.54
O=C(N/N=C/c1ccccc1)c1[nH]c2ccc(Br)cc2c1-c1ccccc1 | i | 2
c1ccc(/N=C2\N=C(Nc3ccccn3)c3ccccc32)nc1 | i | 0.72
CCCSc1nc(C)cc(C)c1S(=O)(=O)c1ccccc1C | i | 0.14
COC(=O)c1cc(-c2ccc(OC)c(OC)c2)on1 | i | 0.82
COCC(C)NC(=O)CSc1nnc(-c2cccc(S(=O)(=O)N3CCCCC3)c2)o1 (stereo unspecified) | i | -1.1
COC(=O)c1cccc(-n2c(=O)n(Cc3ccccc3)c(=O)c3[nH]cnc32)c1C | i | -0.22
COc1cc(OC)cc(C(=O)N2CCN(c3ccc(N4CCOCC4)nn3)CC2)c1 | i | -1.2
Cc1ccc(NS(=O)(=O)c2ccc(-c3cnc(C4CC4)o3)cc2)cc1 | i | -0.15
Cc1ccc(NC(=O)c2cccc(N3C(=O)C4C5C=CC(C5)C4C3=O)c2)cc1C (stereo unspecified) | i | -4.1
CC(=O)C1=C(c2ccccc2)NC(=O)NC1c1ccc(O)c(O)c1 (stereo unspecified) | i | -0.43
CCCCCC(=O)N1CC2(CC(c3cccc(NC(=O)[C@@H]4CCC(=O)N4)c3)=NO2)C[C@@H]1C(N)=O (stereo partly specified) | i | 0.06
O=C(Nc1cccc(-c2cn3ccccc3n2)c1)C1CC1 | i | 1

An excerpt from above in order of molecular weight, rising.
Molecule | KCNQ2 block | KCNQ2 block baseline
c1ccc(/N=C2\N=C(Nc3ccccn3)c3ccccc32)nc1 | i | 0.72
Cc1c(Br)c(C(F)(F)F)nn1CC(=O)N1CCCC1 | i | -0.01
COc1ccc(CN2CCN(C(=O)c3cccs3)CC2)cc1Br | i | -1.4

(list continues)
Molecule | KCNQ2 block | KCNQ2 block baseline
Clc1ccc(OCCOCCNCc2ccccc2)cc1Cl | i | 2.1
CCOC(=O)CS(=O)(=O)c1ccccc1 | i | 1.7
O=C(NCCCn1ccnc1)c1ccc(Br)o1 | i | 1.3
CS(=O)(=O)c1ccccc1C(=O)N(CCc1ccccc1)Cc1ccccc1 | -5.6* | -0.18*
c1cncc(-c2noc(CC3CCCCC3)n2)c1 | i | 1.3
CC(C)CN(CC(C)C)C(=O)C12CCC(C)(C(=O)O1)C2(C)C (stereo unspecified) | i | 1.8
COc1cccc(N2C(=O)CC(N3CCc4ccccc4C3)C2=O)c1 (stereo unspecified) | i | -0.01
CCOCC(=O)Nc1cc(S(=O)(=O)N2CCOCC2)ccc1N1CCCCC1 | i | -0.01
Cc1ccc(C)c(OCc2cc(C(=O)NC(c3ccccn3)C(F)(F)F)no2)c1 (stereo unspecified) | i | -0.96
O=[N+]([O-])c1ccc(N2CCCCC2)cc1NCCOc1ccccc1 | i | -2.6
CC1CC2OC(=O)C3(C)CCCC(C)(C23)C1(O)CCc1ccoc1 (stereo unspecified) | i | 2.2
C1CCN=C(Nc2nn[nH]n2)CC1 | i | 0.17
Cc1ccc(Cn2cc(S(=O)(=O)c3ccc(Cl)cc3)c(=O)c3cc(F)ccc32)cc1 | i | 0.57
CCN(CCNC(=O)Nc1ccc(Cl)cc1)c1ccccc1 | i | -0.08
O=C(OCn1nnc2ccccc2c1=O)c1cc(-c2ccccc2)nc2ccccc12 | i | -1.3
Cc1ccc(-n2c(SCC(=O)N/N=C/C=C/c3ccccc3[N+](=O)[O-])nc3ccccc3c2=O)cc1 | i | -0.02
COc1ccc(OC)c(-c2nc3cc4ccccc4cc3nc2-c2ccccc2)c1 | i | 0.56
CCc1cccc(NC(=O)CSC2=NS(=O)(=O)c3ccccc32)c1 | i | -0.29
O=C(Cn1cnc2ccccc2c1=O)Nc1ccc(-c2nnc3n2CCCCC3)cc1 | i | -0.14
CCOc1ccc(S(=O)(=O)N(C)c2ccc(OCC(=O)Nc3ccc4[nH]c(=O)[nH]c4c3)cc2)cc1 | i | -2.2
C=CCOC(=O)/C(=C\c1cccc2ccccc12)NC(=O)c1ccccc1 | -5.8* | -0.17*
Cc1nn2c(-c3ccncc3)nnc2c2ccccc12 | i | -0.01
COc1ccc2c(c1)N1CCN=C1N2C | i | -0.84
CC(C)[C@H](NC(=O)OCc1ccccc1)C(=O)OCC(=O)N1CCN(c2ccccc2)CC1 | i | -0.05
N#Cc1ccccc1OCC(=O)NCC1(N2CCCCC2)CCCCC1 | i | 0.05
CCc1nnc(SCc2cccc(F)c2)nc1CC | i | 2.3
Cc1ccc(C(=O)Oc2cc(N)n(S(=O)(=O)c3ccc(F)cc3)n2)cc1 | i | 0.21
O=C(O)CCCNC(=O)OCc1ccccc1 | i | 0.39
